# KCNQ2 block: KCNQ2 potassium channel inhibitors, primary screen, cell-based, CHO-K1, FluxOR thallium flux, B-score (AID 2156); Potassium voltage-gated channel subfamily KQT member 2 (Rattus norvegicus), O88943; 20 min; stronger effect = lower value; only compounds with negative scores are shown here; some inactives read as strong as hits; B-score at 10 µM; actives 1.1% (n = 310,000);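 active = fluorescence ratio B-score at most minus 3 library SDs, with starting brightness B-score within 2 library SDs, cut at about -5.5 in these data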
# Target sequence (O88943 whole entry, looked up): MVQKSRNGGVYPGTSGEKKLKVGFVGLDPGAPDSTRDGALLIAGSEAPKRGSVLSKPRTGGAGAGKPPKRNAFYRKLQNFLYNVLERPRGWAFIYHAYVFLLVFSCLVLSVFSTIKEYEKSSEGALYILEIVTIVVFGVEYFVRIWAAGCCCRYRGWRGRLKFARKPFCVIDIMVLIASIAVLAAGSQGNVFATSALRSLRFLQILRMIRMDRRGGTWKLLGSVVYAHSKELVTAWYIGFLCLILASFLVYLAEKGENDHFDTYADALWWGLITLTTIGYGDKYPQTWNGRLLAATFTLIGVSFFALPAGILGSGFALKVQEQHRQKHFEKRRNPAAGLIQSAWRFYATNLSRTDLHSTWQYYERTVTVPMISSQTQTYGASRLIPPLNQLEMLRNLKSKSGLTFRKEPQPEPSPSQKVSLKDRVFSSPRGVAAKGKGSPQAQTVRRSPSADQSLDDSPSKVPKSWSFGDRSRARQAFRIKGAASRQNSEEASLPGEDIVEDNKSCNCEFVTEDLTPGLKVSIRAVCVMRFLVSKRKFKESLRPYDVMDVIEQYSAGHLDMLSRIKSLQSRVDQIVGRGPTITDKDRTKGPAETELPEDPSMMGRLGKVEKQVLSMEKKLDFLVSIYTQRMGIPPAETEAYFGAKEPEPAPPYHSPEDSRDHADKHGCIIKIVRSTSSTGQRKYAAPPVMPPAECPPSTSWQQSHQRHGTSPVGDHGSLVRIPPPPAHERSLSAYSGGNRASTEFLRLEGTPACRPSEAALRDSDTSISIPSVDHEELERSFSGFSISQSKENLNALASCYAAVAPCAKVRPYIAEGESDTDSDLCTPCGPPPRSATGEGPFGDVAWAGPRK
# KCNQ2 block baseline: recorded beside KCNQ2 block, whose call it bears; B-score; measured here: initial fluorescence intensity artifact check;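 brightness before thallium and not channel activity; 0 = typical well and far values either way flag optical interference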
# The depositor's hits bear a star; i = inactive. An excerpt; the hit share may differ from the screen's.
# Order of values: KCNQ2 block | KCNQ2 block baseline
- CC1(C)Cc2c(c(N3CCOCC3)nc3snc(N)c23)CO1
→ i | -0.42
- Cc1ccccc1CN1CCCOCCS1(=O)=O
→ i | 0.81
- CCc1cccc(NC(=O)CCc2c(C)nn(-c3ccc(N4CCCCC4)nn3)c2C)c1
→ i | -0.3
- CC(=O)c1c(COC(=O)c2ccncc2)nc2ccccc2[n+]1[O-]
→ i | -0.64
- COc1cccc(-c2ncc3ccccn23)c1
→ i | 1.8
- NC(=O)C1CCN(C(=O)CSc2nc3ccccc3[nH]2)CC1
→ i | 1.5
- CCN(Cc1ccccc1)S(=O)(=O)c1cc(C(=O)OC)n(C)c1
→ i | 0.39
- COc1ccc(S(=O)(=O)N2CCCN(S(=O)(=O)c3ccc(OC)cc3C)CC2)c(C)c1
→ i | 0.01
- CCC(=O)C1CCCN(C(=O)c2cccc(OC3CCN(S(C)(=O)=O)CC3)c2)C1 (stereo not given)
→ i | 2.2
- O=C(CN1C(=O)/C(=C/c2cccc(Br)c2)SC1=S)N1CCCC1
→ i | -0.25
- CCOC(=O)C1CCCN(CCC(=O)Nc2ccc(Br)c(C)c2)C1 (stereo not given)
→ i | 1.6
- O=C(NCC1CCCO1)c1ccccc1NC(=O)c1cccc2ccccc12 (stereo not given)
→ i | 0.3
- COC(=O)c1ccc(CNC(=O)c2ccc3c(c2)OCCO3)cc1
→ i | -1.7
- O=S(=O)(c1ccc(S(=O)(=O)N(Cc2ccco2)Cc2ccccc2Cl)cc1)N1CCCC1
→ i | 0.59
- Cc1ccc(/C=C2\SC(N3CCCC3)=NC2=O)cc1
→ i | 0.4
- COc1ccc(NC(=O)/C(=C\c2ccc(OS(=O)(=O)c3ccc(C)cc3)cc2)NC(=O)c2ccccc2)cc1
→ i | 0.67
- O=C1C=C(NCCc2ccccc2)C2(CCCCC2)O1
→ i | -0.45
- CN1CCc2nc(NC(=O)c3cccc(S(=O)(=O)N4CCc5ccccc54)c3)sc2C1
→ i | 0.54
- CC1CC1C(=O)OCC(=O)NCc1ccc(Cl)cc1Cl (stereo not given)
→ i | 0.55
- CCOC(=O)CC(=O)CSc1nc2c(sc(=S)n2-c2ccc(C)c(C)c2)c(=O)[nH]1
→ i | -3
- COc1ccccc1C(=O)N/N=C1/NC(=O)CC(C(=O)Nc2ccccc2)S1 (stereo not given)
→ i | -0.4
- Cc1occc1-c1nnc(SCC(N)=O)o1
→ i | -2
- CCN(CC)C(=O)Oc1ccc2oc(=O)cc(-c3cc4cccc(OC)c4o3)c2c1
→ i | -0.73
- CC(C)(CNC(=O)c1ccc(S(=O)(=O)Nc2ccccc2F)cc1)N1CCOCC1
→ i | 1.6
- O=C(Nc1ccccc1)c1ccc[n+](Cc2ccc([N+](=O)[O-])cc2)c1
→ i | -0.22
- CC(C)CN(C(=O)CSc1nnnn1-c1ccccc1)c1c(N)n(CC(C)C)c(=O)[nH]c1=O
→ i | 1.4
- O=C(c1ccccn1)N1CCCC(N2CCN(c3ccccc3)CC2)C1 (stereo not given)
→ i | 1.6
- COCc1cc(=O)[nH]c2cc(NC(=O)C(F)(F)F)c(C)cc12
→ i | 1.1
- O=C(CS(=O)(=O)Cc1ccccc1)Nc1nnc(C2CCCCC2)s1
→ i | -1.7
- CN(C(=O)/C=C/c1ccccc1)C1CCCCC1
→ i | -0.01
- O=c1cc(CN2CCN(S(=O)(=O)c3ccc4ccccc4c3)CC2)nc2sccn12
→ i | -0.3
- CC1=NN(C(=O)COc2ccc(C)c(C)c2)C(O)(c2ccc(Cl)cc2)C1 (stereo not given)
→ i | 6.8
- Cc1[nH]c(=O)c(C#N)c(C)c1CCC(=O)NCc1cccc(C(F)(F)F)c1
→ i | -2.4
- CCOC(=O)c1nnn(-c2nonc2N)c1COc1ccc(F)cc1
→ i | 1.2
- S=c1[nH]nc(-c2ccncc2)n1/N=C/c1ccccc1Cl
→ i | 0.58
- COc1ccccc1N1CC(O)=C(c2nc3ccccc3c(=O)[nH]2)C1=N
→ i | -0.49
- O=c1[nH]c(/C=C\c2ccc(O)cc2)nc(O)c1[N+](=O)[O-]
→ i | -0.75
- Cc1ccsc1/C=N/NC(=O)C(N)=O
→ i | 0.95
- Cc1cc(C)cc(Oc2ccccc2C=O)c1
→ i | 0.31
- Cc1ccc(NC2CCCN(C(=O)c3cccs3)C2)cc1C (stereo not given)
→ i | -0.4
- Cn1c(SCC(=O)Nc2cccc(Br)c2)nnc1-c1cc2ccccc2o1
→ i | -2
- CCCCNC(=O)N1c2ccccc2CC1C (stereo not given)
→ i | 0.07
- COC(=O)[C@@H](NC(=O)N1CCN(C(=O)C2COc3ccccc3O2)CC1)C(C)C (stereo not given in full)
→ i | -1.7
- O=C(NCc1cccc(Cl)c1)c1ccc2nc(N3CCOCC3)sc2c1
→ i | -1.9
- CCCOc1ccccc1NC(=O)/C=C/C(N)=O
→ i | 0.39
- Cc1ccc(C(=O)Nc2nc3ccccc3[nH]2)cc1
→ i | -0.29
- O=C(O)c1cccc(COc2ccc(CO)cc2Cl)c1
→ i | -0.11
- COc1ccc(CNc2oc(COc3ccccc3Cl)nc2C#N)cc1
→ i | 0.03
- CNC(=S)NNC(=O)c1oc2nc(-c3ccccc3)cc(C)c2c1N
→ i | -2.4
- O=C(OCCN1CCOCC1)C1(c2ccccc2)CCCCC1
→ i | -0.25
- O=C(O)c1ccc(Cl)c(S(=O)(=O)Nc2ccccc2C(=O)Nc2ccc(Cl)cc2)c1
→ i | 1.1
- CN1C(=O)/C(=C/c2ccccc2OCc2cccc(F)c2)N(C)C1=S
→ i | 1.9
- CCCCn1nnc(NC(=O)c2ccc(-c3cccc(Cl)c3)o2)n1
→ i | -0.14
- O=C1c2cccc3c(N4CCCCC4)ccc(c23)C(=O)N1c1ccc(O)cc1
→ i | 1.7
- CCC(=O)OCc1c(C(F)(F)F)nn(C)c1Sc1ccc(Cl)cc1
→ i | -0.23
- Cc1ccsc1/C=C1\CCC(C2CCCC2)C1=O (stereo not given)
→ i | -1.1
- COCCCn1c(=O)c2ccccc2n2c(=S)[nH]nc12
→ i | 0.2
- CCOc1cccc2sc(N(CCCN(C)C)C(=O)c3ccc(C(=O)c4ccccc4)cc3)nc12
→ i | 2.1
- O=C1NC(c2ccccc2Cl)Nc2ccccc21 (stereo not given)
→ i | -0.99
- CCOc1ccccc1NC(=O)C(NCCc1ccc(OC)cc1)c1ccccc1 (stereo not given)
→ i | 1.8

# The list continues.
# Order of values: KCNQ2 block | KCNQ2 block baseline
- O=C(Nc1ncccc1Cl)C(Sc1ccccc1)c1ccccc1 (stereo not given)
→ i | -0.05
- CCOC(=O)CSc1nnc(C)n1N
→ i | 0.47
- CCCn1c(SCC(=O)N2CCCc3ccccc32)nnc1-c1ccccn1
→ i | -0.86
- Cc1ccsc1/C=C1/NC(=O)N(Cc2ccc(F)cc2)C1=O
→ i | -1.6
- CC(C)OCCCNC(=O)C(=O)N/N=C/c1ccc(OCc2ccccc2)cc1
→ i | 0.03
- CCOc1ccccc1C1C(C(N)=O)=C(C)Nc2nc(-c3cccc(C)c3)nn21 (stereo not given)
→ i | 0.73
- Cc1ccc2nc(/C(C#N)=C/c3cn[nH]c3-c3ccc(F)cc3)[nH]c2c1
→ i | 0.1
- Cc1ccc(OCc2cc(C(=O)N(C)CCc3nc4ccccc4[nH]3)no2)cc1C
→ i | 1.3
- O=C(c1ccco1)N1CCN(C(c2ccc(Cl)cc2)c2nnnn2Cc2ccccc2)CC1 (stereo not given)
→ i | -0.56
- Cc1ccc(NC(=O)CSc2ncccc2C(=O)Oc2cccc([N+](=O)[O-])c2)cc1Cl
→ i | 1.9
- COCCCn1c(=O)c2ccccc2n(Cc2ccc(C)cc2)c1=O
→ i | -0.08
- CCCc1cc(NCCN(C)C)n2c(nc3ccccc32)c1C#N
→ i | 0.52
- O=C(Cc1c(Cl)cccc1Cl)N/N=C/c1cccnc1
→ i | -0.56
- CC1=NCCN1S(=O)(=O)c1ccc(Br)c(C)c1
→ i | 0.08
- O=S1(=O)CCOC[C@H](CC2CCCCC2)N1Cc1ccccc1
→ i | -0.56
- CCOc1ccc2ccccc2c1C1NC(=O)NC(C)=C1C(=O)OCCOC (stereo not given)
→ i | -1.4
- COC(=O)c1cc(Br)ccc1NC(=O)CCNC(=O)c1ccco1
→ i | 1.9
- Cc1ccc(S(=O)(=O)N(Cc2ccc(Cl)cc2)c2ccccc2C(=O)NCc2ccco2)cc1
→ i | 0.15
- COc1ccc(/C=N/n2c(-c3n[nH]c4c3CCC4)n[nH]c2=S)cc1
→ i | -0.94
- CCOC(=O)c1cc(-c2ccc(N)cc2)sc1N
→ i | -2.6
- CCc1nnc2c(NCCc3ccccc3)nc3ccccc3n12
→ i | 0.78
- CCC(C)(C)NC(=O)C(c1ccc(C)cc1)N(CCN1CCOCC1)C(=O)CNC(=O)c1cccs1 (stereo not given)
→ i | 1.3
- O=C(Nc1ccc(Oc2ccccc2)nc1)C1CCCCN1Cc1ccc(O)cc1 (stereo not given)
→ i | 0.75
- COCCNC(=O)C(c1ccc(O)cc1)N(Cc1cccs1)C(=O)CCC(=O)Nc1ccccn1 (stereo not given)
→ i | 0.26
- Cc1cc(=O)[nH]c(N/N=C/c2c(F)c(F)c(F)c(F)c2F)n1
→ i | 0.85
- CN1CCN(S(=O)(=O)c2cccc(C(=O)N(C)C(c3ccccc3)c3ccccc3)c2)CC1
→ i | 0.88
- CCCN1CCN(C(=O)CCc2nnc3ccc(N4CCN(c5cccc(OC)c5)CC4)nn23)CC1
→ i | -0.17
- N#Cc1ccncc1S(=O)c1ccc(Cl)cc1 (stereo not given)
→ i | -1.1
- CCN1CCN(c2nc3c(c(=O)n(C)c(=O)n3C)n2CCSc2nccc(C)n2)CC1
→ i | 1.1
- CCOC(=O)C1(Cc2cccc(F)c2)CCN(C(=O)C2CCC2)CC1
→ i | -0.17
- Cc1cc(Nc2ccccc2)nc(N2CCN(C(=O)c3ccc4c(c3)OCO4)CC2)n1
→ i | 0.15
- COCCn1c(Cc2ccccc2)nnc1SCc1nc2ccccc2c(=O)[nH]1
→ i | 0.32
- C=CCNC(=S)N/N=C/c1ccc(-c2ccc(Br)cc2)o1
→ i | 0.25
- Nc1nc(SCc2ccc3c(c2)OCO3)n[nH]1
→ i | -0.63
- COc1ccc(CCNC(=O)COC(=O)c2ccc(N3CCCC3=O)cc2)cc1
→ i | 1.5
- CC1CCCN(C/C=C/c2ccccc2[N+](=O)[O-])C1 (stereo not given)
→ i | -0.35
- O=[N+]([O-])c1c(Nc2ccccn2)cc(Cl)c2nonc12
→ -11* | -2.9*
- C/C(=N\NC(=O)c1cc(Br)ccc1O)c1cccc(NC(=O)c2ccccc2F)c1
→ i | 0.02
- CS(=O)(=O)N1CCN(C(=O)COc2ccccc2)CC1
→ i | -0.58
- CCCCn1nc(C(=O)Nc2nc3c(s2)CCCC3)c2ccccc2c1=O
→ i | -0.07
- O=[N+]([O-])c1ccccc1/C=N/N1CCN(c2ccc(Cl)cc2)CC1
→ i | 2.8
- COCCNC(=O)c1ccc(CS(=O)(=O)c2ccccc2OC)o1
→ i | -1.2
- Cc1ccc(NC(=O)c2ccccc2F)cc1S(=O)(=O)N1CCCCCC1
→ i | 0.42
- Cc1ccc(C(=O)NCC(=O)OCC(=O)/C=C2\N(C)c3ccccc3C2(C)C)cc1C
→ i | 0.69
- CCCC1=NCCn2cccc21
→ i | -0.25
- CCCCC(CC(O)COCC(C)C)C(=O)NNC(=S)Nc1ccccc1 (stereo not given)
→ i | -1.2
- c1ccc(-n2nnnc2Sc2n[nH]c(-c3ccncc3)n2)cc1
→ i | 0.01
- Cc1ccc(NC(=O)CN2CCC(NC(=O)Cc3ccccc3)CC2)cc1C
→ i | -0.26
- COCCNC(=S)NC1CC2CCCC(C1)N2Cc1cccs1 (stereo not given)
→ i | 0.64
- Fc1ccc(-[n+]2nc(Nc3ccccc3)sc2-c2c3ccccc3cc3ccccc23)cc1
→ i | 7.2
- CC(C)[C@H](NC(=O)c1ccc(F)cc1)C(=O)NC1=NCCS1
→ i | 0.6
- COc1ccc(NC(=O)CSc2ccccn2)cc1OC
→ i | -0.11
- C/C(=C\C(=O)C(F)(F)F)Nc1cc(C)cc(C)c1
→ i | -0.89
- O=C(O)CCn1c2c(c3ccccc31)CCCC2
→ i | 0.25
- O=C(NCC1CCCO1)c1ccc(CNS(=O)(=O)c2ccc(F)c(Cl)c2)cc1 (stereo not given)
→ i | -2.7
- COc1ccccc1CN1C(=O)CCC1(C)C(=O)NC1CCCCCC1 (stereo not given)
→ i | 0.33
- COc1ccc(NC(=O)COC(=O)c2ccc(-n3cnnn3)cc2)cc1Cl
→ i | -0.67
- C[N+]1(CCNC(=O)/C=N/O)CCCCC1
→ i | 3.5
- COCCNC(=O)c1cc(-c2ccccn2)nc2ccc(S(=O)(=O)N3CCC(C)CC3)cc12
→ i | 1.5
- COc1ccc(-c2nc(CN3CCN(c4ncnc5ccccc45)CC3)c(C)o2)c(OC)c1
→ i | -0.78
- Cc1cccc(N2CCN(S(=O)(=O)c3cccs3)CC2)c1C
→ i | -1.2

# Arranged by number of heavy atoms (ascending): 3 of the compounds above
# Order of values: KCNQ2 block | KCNQ2 block baseline
- COCCNC(=O)c1ccc(CS(=O)(=O)c2ccccc2OC)o1
→ i | -1.2
- COc1ccc(NC(=O)COC(=O)c2ccc(-n3cnnn3)cc2)cc1Cl
→ i | -0.67
- Cc1ccc(C(=O)NCC(=O)OCC(=O)/C=C2\N(C)c3ccccc3C2(C)C)cc1C
→ i | 0.69

# Of the compounds above, five have a cyano group:
# Order of values: KCNQ2 block | KCNQ2 block baseline
- Cc1[nH]c(=O)c(C#N)c(C)c1CCC(=O)NCc1cccc(C(F)(F)F)c1
→ i | -2.4
- COc1ccc(CNc2oc(COc3ccccc3Cl)nc2C#N)cc1
→ i | 0.03
- Cc1ccc2nc(/C(C#N)=C/c3cn[nH]c3-c3ccc(F)cc3)[nH]c2c1
→ i | 0.1
- CCCc1cc(NCCN(C)C)n2c(nc3ccccc32)c1C#N
→ i | 0.52
- N#Cc1ccncc1S(=O)c1ccc(Cl)cc1 (stereo not given)
→ i | -1.1

# Look-ups from the entries so far.
# Cc1ccc(NC(=O)CN2CCC(NC(=O)Cc3ccccc3)CC2)cc1C | KCNQ2 block baseline: -0.26
# C[N+]1(CCNC(=O)/C=N/O)CCCCC1 | KCNQ2 block baseline: 3.5

# Screening results as filed in PubChem.
